# RE007 growth inh = less growth of the S. pombe RE007 Vpr strain; 0.21% of 360,000 active; S. pombe RE007 Vpr strain, BacTiter-Glo ATP luminescence, 24 h; control for the full effect not named in the record; Potency, µM (top dose mostly 92.2 µM), for the others: at the highest dose activity change, negative = less growth; active = well fitted falling curve with a large enough effect; inconclusive = small, poorly fitted or top-dose-only effect; inactive = no such curve, though single readings can be large or run the other way;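 further: nearly all actives have a fitted effect of over 50% in size; the assay follows cell death caused by Vpr and the record does not say whether a fall means rescue or toxicity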
#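 Fission yeast strain RE007, carrying one chromosomally integrated HIV-1 vpr copy, was seeded at OD 0.01 in PMG+AL medium with 23 nL pinned compound. After 24 h at 30 °C and 99% humidity, viability was read by BacTiter-Glo luminescence.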
# StopGo reporter = lowers the luciferase signal of an FMDV 2A StopGo reporter; AID 1159524; Potency, µM (series often up to 57.9 µM), inactives show at the top dose signal change, negative = less light; human cells with a luciferase reporter of 2A StopGo recoding; control for the full effect not named in the record; 1.2% of 410,000 active; active = well fitted falling curve with a large enough effect; inconclusive = small, poorly fitted or top-dose-only effect; inactive = no such curve, though single readings can be large or run the other way; tested in HEK293T cells; further: nearly all actives have a fitted effect of over 45% in size; luciferase light after 4 h
# An asterisk follows results filed as active; ? = inconclusive; [ ] = dose if it differs, or a comment. On the % scale 0 is the no-effect control and ±100 the full control effect; potency means the concentration at half of the fitted maximal effect.
# Every second line gives: RE007 growth inh	StopGo reporter
> C#CCN(C[C@H]1[C@H](OC(=O)Nc2cccs2)[C@H](OC(=O)Nc2cccs2)C[C@H]2C(=O)N(c3ccccc3)C(=O)[C@@H]12)S(=O)(=O)c1ccc(C)cc1
→ -12.5%	-12.8%
> CCCCCC(=O)N1C[C@@H](n2cc(COC(=O)c3ccccc3)nn2)[C@H](O)C[C@@H]1c1ccccc1
→ -2.9%	-10.6%
> O=C(NCC(F)(F)F)c1ccc(S(=O)(=O)NCCc2ccc3c(c2)OCCO3)cc1
→ 2.9%	7.1%
> Cc1oc(-c2ccc(Cl)cc2)cc1C(=O)N1CCC1(C)C(=O)O (stereo not drawn)
→ ?	14.7%
> Cc1cccc(S(=O)(=O)NC(=O)C2(C)CCN2C(=O)c2ccc(C3CCCCC3)cc2)c1 (stereo not drawn)
→ 6.0%[18.4 µM]	-20.3%
> CN(C)CCCNC(=O)c1ccc(-c2cc3nc(NCc4cccnc4)n(C)c(=O)c3s2)cc1
→ -0.2%	-7.6%
> Cc1ccc(C(=O)N2CCC(C(=O)c3ccc(F)cc3)CC2)cc1
→ 3.9%	23.9%
> COCCNC(=O)C1(C)CCN(C(=O)c2cc(C(C)(C)C)nn2C)C1 (stereo not drawn)
→ 3.3%	3.9%
> Cc1cc2c(c(C#N)c1C)NC=NC2C (stereo not drawn)
→ -25.6%	-15.3%
> CCOC(=O)c1ccc(NC(=S)Nc2ccc(Br)cc2N)cc1
→ 5.9%	31.6%[activator]
> O=C(NCc1ccccc1Cl)[C@H]1CCCN1C(=O)[C@H]1CCCN1C(=O)c1ccc(Cl)cc1
→ 31.4%	-8.2%
> CCn1nccc1NC(=O)c1csc([C@H]2C[C@H](O)[C@@H](CO)O2)n1
→ 5.9%[18.4 µM]	-11.0%
> CC(C)C[C@H]1CN([C@@H](Cc2ccc(O)cc2)CN2CCC[C@H]2CN2C(=O)C(=O)NC[C@@H]2Cc2ccccc2)C(=O)C(=O)N1CCc1ccccc1
→ 5.1%	-9.3%
> Cc1n[nH]c2ccc([N+](=O)[O-])cc2c1=O
→ -4.5%	-7.1%
> CC1(C(=O)NS(=O)(=O)c2cccc(OC(F)F)c2)CCN1C(=O)CCc1cccs1 (stereo not drawn)
→ -5.9%	-8.1%
> Cc1ccc(C)c(CC(=O)N2CCCCC2c2cc(C(=O)Nc3ccc(F)c(Cl)c3)no2)c1 (stereo not drawn)
→ 1.5%	-17.8%
> O=S1(=O)CC(N2CCN(CCO)CC2)CN1Cc1cn(Cc2ccc(F)cc2)nn1 (stereo not drawn)
→ 4.0%	-10.9%
> C=C(C1=CCN(S(=O)(=O)C(C)(C)C)[C@@H]1CCO)c1ccccc1
→ -5.6%	-17.8%
> COc1cc(CCN(C(=O)c2cc3ccccc3[nH]2)C(C)c2nc3ccccc3[nH]2)cc(OC)c1 (stereo not drawn)
→ 2.9%	-16.3%
> OC(c1ccc(F)cc1)c1nc(-c2ccoc2)cs1 (stereo not drawn)
→ 4.1%[18.4 µM]	3.1%
> Cc1noc(C)c1-c1ccc(C(=O)NCc2ccncc2)c2occc12
→ -21.4%	?
> COc1ccc(CN(C)C(=O)c2cccc(S(=O)(=O)N3CCCc4ccccc43)c2)c(OC)c1OC
→ -8.8%	?
> CCc1ccc(C(=O)OCC(=O)Nc2c(C)n(C)n(-c3ccccc3)c2=O)cc1
→ -9.2%	-21.0%
> Cc1ccc(NC(=O)CSCC(=O)N(C)CC(=O)Nc2c(C)cccc2C)cc1
→ 3.3%	-9.0%
> CC(=O)C1=CCC(c2cccc3ccccc23)N(S(=O)(=O)c2ccc(C)cc2)C1 (stereo not drawn)
→ 2.1%	-10.0%
> CCOc1ccc(S(=O)(=O)N2CCOCC2)cc1NC(=O)CCN1C(=O)NC2(CCCC2)C1=O
→ -3.0%	-4.5%
> O=S1(=O)CC(N2CC=CC2)CN1Cc1cn(Cc2cccc(C(F)(F)F)c2)nn1 (stereo not drawn)
→ 4.2%	-9.0%
> O=NN(CCCl)C(=O)NCCc1cccc[n+]1[O-]
→ -8.9%	-3.2%
> CC(C)C[C@H]1CN([C@@H](Cc2ccccc2)CN2CCC[C@@H]2CN2C(=O)C(=O)NC[C@@H]2Cc2ccc(O)cc2)C(=O)C(=O)N1CC1CCCCC1
→ -12.7%	28.2%
> COC(=O)c1c(N)[nH]c(C(=O)c2ccccc2)c1-c1ccc(Cl)cc1
→ 2.2%	?

# One compound at a time, from the list above:
# Results for CCOc1ccc(S(=O)(=O)N2CCOCC2)cc1NC(=O)CCN1C(=O)NC2(CCCC2)C1=O = RE007 growth inh: -3.0%; StopGo reporter: -4.5%
# Results for O=NN(CCCl)C(=O)NCCc1cccc[n+]1[O-] = RE007 growth inh: -8.9%; StopGo reporter: -3.2%
# Results for Cc1cc2c(c(C#N)c1C)NC=NC2C (stereo not drawn) = RE007 growth inh: -25.6%; StopGo reporter: -15.3%

# (continued)
# Every second line gives: RE007 growth inh	StopGo reporter
> CCCCNC(=O)C1(C)CCN1C(=O)c1cc(OC)ccc1Br (stereo not drawn)
→ -9.4%[18.4 µM]	-10.5%
> CCOC(=O)C1CCCN(C(=O)c2ccc(OC)c(OC)c2)CC1 (stereo not drawn)
→ 11.3%	-5.0%
> COc1cccc(C2=Cc3ccc(F)cc3C(CC(C)=O)N2c2ccc(-c3cc(OC)c(OC)c(OC)c3)cc2)c1 (stereo not drawn)
→ -10.7%	-18.8%
> CC1(C)OC(=O)NC1c1ccccc1 (stereo not drawn)
→ 0.3%	-0.1%
> CCOC(=O)C1(C)CCCN(C(=O)c2ccc(OC(F)F)cc2)C1 (stereo not drawn)
→ 1.3%	-0.2%
> COc1cccc(NC(=O)C2(C)CCN2C(=O)Cc2ccc(C(C)C)cc2)c1 (stereo not drawn)
→ -12.1%[18.4 µM]	-26.7%
> C[C@@H]1CN([C@@H](C)CO)C(=O)c2c(c3ccccc3n2C)-c2ccccc2CO[C@H]1CN(C)C(=O)[C@H](Cc1ccccc1)N(C)C
→ -10.3%	-1.2%
> Cc1ccc(C)c(NCCCCCCCC(=O)O)c1
→ -21.7%	-9.8%
> OC(c1ccc(F)cc1)c1nc(-c2ccncc2)cs1 (stereo not drawn)
→ -11.6%[18.4 µM]	?
> c1ccc(CNc2nc(NCC3CC3)nc3cc(-c4ccccc4)sc23)cc1
→ -4.9%	-25.1%
> Cc1ccc(C(O)c2ncc(-c3ccc(C(F)(F)F)cc3)[nH]2)cc1F (stereo not drawn)
→ 7.1%	-12.0%
> Cc1ccc(-c2cc3nc(-c4ccccc4)cc(NCCCO)n3n2)cc1
→ -0.4%	-1.6%
> CCOC(=O)c1cc2cc(OC)ccc2n1C1CCN(Cc2ccccc2)CC1
→ -5.9%	-9.5%
> CC(=O)Oc1cc(O)c2c(=O)c(OC(C)=O)c(-c3ccc(OC(C)=O)c(OC(C)=O)c3)oc2c1
→ 14.8%	4.4%
> CC1CN2C(=O)C1(c1ccccc1)C(=O)NC2=S (stereo not drawn)
→ 15.4%	-13.0%
> COc1cc(OC)cc(C2=Cc3ccccc3C(CC(=O)c3ccco3)N2c2ccc(-c3cccnc3)cc2)c1 (stereo not drawn)
→ 2.1%	-20.0%
> CC1(CCc2ccccc2)NC(=O)N(CC(=O)N2CCc3ccccc32)C1=O (stereo not drawn)
→ 2.8%	-13.6%
> NC(=O)c1ccc(Nc2nc(C(N)COCc3ccccc3)cs2)cc1 (stereo not drawn)
→ -2.7%[18.4 µM]	-11.4%
> N#CC(=Nc1cccc(F)c1)C1=C(O)c2ccccc2C1=O
→ -3.9%[18.4 µM]	26.4%
> COC(=O)C(=Cc1ccncc1)c1cccc2ccccc12
→ -3.8%	-29.2%
> CC(C)(C)[C@H]1C=C(C(=O)NCc2ccccc2)O[C@@H](OCCCCO)C1
→ -0.9%	24.7%
> CC(C)N(Cc1nnc(-c2ccccc2Cl)o1)C(=O)COc1cccc(Cl)c1
→ -8.3%	0.0%
> CSc1ncnc2c1ncn2CCCN(C)CCc1ccccn1
→ ?	-9.6%
> Nc1nc2c(ncn2[C@@H]2O[C@H](CNS(=O)(=O)N3CCCC3)[C@@H](O)[C@H]2O)c(=O)[nH]1
→ 5.5%	-15.3%
> CN(N=Cc1ccc([N+](=O)[O-])cc1)c1ccccn1
→ -23.9%	34.5%[activator]
> O=C(CSc1nc2scc(-c3cccs3)c2c(=O)n1CCc1ccccc1)N1CCCC1
→ 52.4%	-10.8%
> CC1NC(=O)c2cc3ccccc3cc2-n2c1nc1cc(F)ccc1c2=O (stereo not drawn)
→ 8.5%	-23.7%
> OC(c1ccccc1)(c1nc(-c2csc3ccccc23)cs1)C(F)(F)F (stereo not drawn)
→ ?	5.5%
> O=C(Nc1cccc(S(=O)(=O)N2CCCC2)c1)[C@@H]1O[C@H](CO)[C@@H](O)[C@H]1O
→ 8.6%	-10.4%
> CN(Cc1nc2ccccc2c(=O)[nH]1)C(=O)c1cc(C2CC2)nn1-c1ccccc1
→ 8.0%	-4.6%

# 4 entries from above, field by field.
CN(Cc1nc2ccccc2c(=O)[nH]1)C(=O)c1cc(C2CC2)nn1-c1ccccc1
  RE007 growth inh: 8.0%
  StopGo reporter: -4.6%
OC(c1ccc(F)cc1)c1nc(-c2ccncc2)cs1 (stereo not drawn)
  RE007 growth inh: -11.6%[18.4 µM]
  StopGo reporter: ?
CSc1ncnc2c1ncn2CCCN(C)CCc1ccccn1
  RE007 growth inh: ?
  StopGo reporter: -9.6%
CC(C)N(Cc1nnc(-c2ccccc2Cl)o1)C(=O)COc1cccc(Cl)c1
  RE007 growth inh: -8.3%
  StopGo reporter: 0.0%

# Structural class, those above containing a nitro group on carbon (two)
# Every second line gives: RE007 growth inh	StopGo reporter
> Cc1n[nH]c2ccc([N+](=O)[O-])cc2c1=O
→ -4.5%	-7.1%
> CN(N=Cc1ccc([N+](=O)[O-])cc1)c1ccccn1
→ -23.9%	34.5%[activator]

# More results follow.
# Every second line gives: RE007 growth inh	StopGo reporter
> Cc1ccc(S(=O)(=O)N2CCC(=O)CC2c2ccccc2)cc1 (stereo not drawn)
→ 10.5%	1.2%
> COc1ccc(NC(=O)c2cc(S(=O)(=O)N3CCOCC3)ccc2C)cc1S(=O)(=O)N1CCCCC1
→ 9.8%	-15.3%
> CC(=O)OCC(=O)NCCCOc1cccc(CN2CCCCC2)c1
→ -12.9%[18.4 µM]	-22.3%
> CCN(C(=O)COC(=O)c1c2c(nc3ccccc13)CCC2)c1c(N)n(Cc2ccccc2)c(=O)[nH]c1=O
→ -0.6%	-18.8%
> CC1(c2nnc(-c3cccc(Cl)c3)o2)CC(c2cccnc2)=NO1 (stereo not drawn)
→ 1.7%	-5.4%
> O=C(Nc1ccc(OC(F)(F)F)cc1)N1CCc2nc(NCc3cccc(Oc4ccccc4)c3)ncc2C1
→ -7.6%[18.4 µM]	-30.2%
> CC(C)c1ccc([C@@H]2O[C@H](CCc3ccccc3)Cc3[nH][nH]c(=O)c32)cc1
→ -8.0%	0.0%
> O=C(Cc1cccc(NC(=O)C2CCCN(C(=O)CCc3ccccc3)C2)c1)Nc1cccc(C(=O)N2CCCCC2)c1 (stereo not drawn)
→ -13.0%	?
> Cc1ccc(S(=O)(=O)N2C[C@H]3C(=O)C[C@@H](c4ccccc4)N(S(=O)(=O)c4ccc(C)cc4)[C@H]3C[C@H]2c2cccc3ccccc23)cc1
→ -8.6%	-18.7%
> C[C@H]1CN([C@@H](C)CO)S(=O)(=O)c2ccc(/C=C/c3ccccc3)cc2O[C@H]1CN(C)C(=O)NC1CCCCC1
→ -2.4%	-2.3%
> COC(=O)N(C)C[C@H]1OCc2cnnn2CCCC(=O)N([C@@H](C)CO)C[C@H]1C
→ 31.7%	-12.4%
> NC(=O)c1ncn([C@@H]2O[C@H](CNCc3cnc(N4CCOCC4)nc3)[C@@H](O)[C@H]2O)n1
→ -4.0%	-9.1%
> COc1ccccc1C(C(=O)c1ccccc1)c1ccc2ccccc2c1 (stereo not drawn)
→ -2.3%	-16.5%
> CCc1cccc(NC(=O)CSc2nc(C)cs2)c1
→ -6.9%	34.6%[activator]
> CCCc1nc2ccccc2n1C(C(=O)NC(C)(C)C)C1CC1 (stereo not drawn)
→ 4.6%	-4.7%
> Clc1ccccc1-c1cccc2nccn12
→ 17.2%[18.4 µM]	-11.1%
> C#CCN1C=CC(=O)[C@@H](OC(=O)Nc2ccc(OC)cc2)[C@H]1c1ccccc1Br
→ -30.5%	-17.2%
> O=C(NC1CCCC1)C1c2ccccc2OCC(=O)N1Cc1cccnc1 (stereo not drawn)
→ 16.7%	-4.2%
> CC1(C(=O)Nc2ccc3c(c2)OCO3)Cc2c(-c3cccc(C(N)=O)c3)ccnc2O1 (stereo not drawn)
→ -14.4%	-9.3%
> Cc1cccc(COC[C@H](CC(C)C)N2CCN(C(=O)c3ccc(C(F)(F)F)cc3)CCC2=O)c1
→ 34.4%	-24.9%
> NC(Cc1ccc(F)cc1)c1csc(Nc2cc(NCc3ccco3)ncn2)n1 (stereo not drawn)
→ 12.7%	-26.3%
> COC(=O)[C@H](Cc1c[nH]c2ccccc12)NCc1cccc(B(O)O)c1
→ -9.7%	49.3%[activator]
> CCCCC(c1nc2ccccc2[nH]1)N(C(=O)c1ccccc1)c1ccccc1[N+](=O)[O-] (stereo not drawn)
→ -0.2%	-8.2%
> CC(C)CCN1CCC(CN2CCNC(=O)C2=O)CC1
→ 8.6%	-25.2%

# Screening data deposited in PubChem by National Center for Advancing Translational Sciences (NCATS).

# The list is partial, so the mix of outcomes need not match the whole.
